Source: PubChem BioAssay (ICCB-Longwood Screening Facility, Harvard Medical School)
PV pol inh – inhibitors of poliovirus RNA polymerase binding and polymerization; % elongation, % (compound at 16.7 µg/mL); poliovirus polymerase elongation, fluorescence polarization; active compounds read low; P03300; 150,000 tested, 0.66% active; in the data active = % elongation below about 90%; note: some results filed as inactive read as strong as hits
MenB inh – Mtb MenB enzyme inhibition; P9WNP5; MenB enzyme assay, absorbance read-out; some hits fall short of the stated cut; inhibition, %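 (about 12 µg/mL by stock and volumes)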; 100,000 tested, 0.43% active;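 active = mean of two replicates above 30%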;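 note: 0% = no compound and 100% = wells with inactive enzyme; the first replicate is given; strong numbers were not always called active; inactives centre near -10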
Target sequence (P9WNP5 whole entry, looked up): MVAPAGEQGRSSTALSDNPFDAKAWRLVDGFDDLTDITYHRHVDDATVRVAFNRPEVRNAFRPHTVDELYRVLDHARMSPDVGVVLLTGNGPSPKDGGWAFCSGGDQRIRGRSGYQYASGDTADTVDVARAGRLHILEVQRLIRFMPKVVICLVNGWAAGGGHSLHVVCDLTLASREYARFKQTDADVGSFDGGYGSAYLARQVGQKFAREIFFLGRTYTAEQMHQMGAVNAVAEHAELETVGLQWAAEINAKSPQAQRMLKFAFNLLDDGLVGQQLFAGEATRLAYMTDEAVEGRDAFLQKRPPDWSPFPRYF
MbtI inh – MbtI salicylate synthase inhibition; inhibition, %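 (about 17 µg/mL by stock and volumes)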; purified MbtI enzyme, fluorescence intensity read-out; 100,000 tested, 0.89% active; P9WFX0;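 active = above 50% in both replicates, above 80% if mildly self-fluorescent; inactive = the rest, strongly fluorescent compounds included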;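 note: 0% = mean of negative and 100% = mean of positive controls; one replicate is shown; some compounds called inactive have numbers as strong as hits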
Target sequence (P9WFX0 whole entry, looked up): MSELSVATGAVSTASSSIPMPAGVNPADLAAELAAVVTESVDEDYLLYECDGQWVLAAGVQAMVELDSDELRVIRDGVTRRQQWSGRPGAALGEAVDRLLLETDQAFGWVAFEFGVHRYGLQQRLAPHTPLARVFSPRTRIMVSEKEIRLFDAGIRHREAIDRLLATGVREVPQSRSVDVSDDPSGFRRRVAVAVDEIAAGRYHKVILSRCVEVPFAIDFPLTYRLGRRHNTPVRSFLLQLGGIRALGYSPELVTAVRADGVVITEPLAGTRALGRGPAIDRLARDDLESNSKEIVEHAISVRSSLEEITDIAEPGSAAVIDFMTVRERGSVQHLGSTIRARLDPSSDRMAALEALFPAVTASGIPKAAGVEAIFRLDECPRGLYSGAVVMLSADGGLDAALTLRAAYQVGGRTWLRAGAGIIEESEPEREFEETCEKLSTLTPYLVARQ
PV pol inh intensity – recorded beside PV pol inh, whose call it bears; % elongation; measured here: total intensity read-out; formula for this scale not given here;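 total fluorescence in place of polarization; lower means less elongation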
Starred values were filed as active, the others as inactive; i = inactive; . = not tested or not shown; & = joins results of further samples. Random draw from the library (roughly 1.7% active in at least one column).

SMILES	PV pol inh	PV pol inh intensity	MenB inh	MbtI inh
CC(=O)N1SC(N)=NC1c1ccccc1 (configuration not stated)	105	101	5	-2
CCCCc1c(C)nc(SCC(=O)O)[nH]c1=O	105	105	-14	-10
O=C(O)COCC(=O)Nc1ccc2c(c1)C(=O)OC2	102	101	-14	-3
CCN(CC)C(=S)NC(=O)Cc1ccccc1	100	103	-7	-12
O=C(NCCC1=CCCCC1)c1cc2cc3ccc(Cl)cc3nc2o1	101	105	0	29
CC(C)NC(=S)NCc1cccc(Cl)c1	103	99	6	4
CC(=O)Nc1ccc(-c2nc3ccccc3[nH]2)cc1	102	104	-13	i
CC(C)C(NC(=O)c1ccc(F)cc1)C(=O)N1CCN(Cc2ccccc2)CC1 (configuration not stated)	104	98	8	13
CC(C)C(=O)N1N=C(c2ccco2)CC1c1cn(-c2ccccc2)nc1-c1ccccc1 (configuration not stated)	.	.	-22	-5
Cc1cnc(C(=O)OCC(=O)c2ccc3c(c2)CCCC3)cn1	104	96	-25	-3
Cc1cc(Cl)c(C(N)=O)c(C)n1	97	99	-4	.
O=C1C(CO)NC(=S)N1c1ccccc1 (configuration not stated)	105	101	-37	3
O=C(CCc1nnc2c(=O)n(-c3cccc(F)c3)ccn12)NCCC1=CCCCC1	100	102	0	-20
O=C1S/C(=C\c2ccc3c(c2)OCO3)C(=O)N1Cc1ccccc1F	104	98	-29	3
CC(c1nc2ccccc2[nH]1)N1CCCCC1 (configuration not stated)	103	104	3	15
CC1CCCCN1C(=O)CSc1nnc(-c2ccc(Cl)cc2)o1 (configuration not stated)	103	104	-18	-14
O=C(O)COCCN1CCCC1=O	101	99	-16	-5
COC(=O)c1c(NC(=O)CN2CCN(C(=O)c3ccco3)CC2)sc2c1CCC2	98	101	-8	-20
O=C(Nc1cc(F)ccc1F)C1CCCN(c2ncnc3onc(-c4ccc(F)cc4)c23)C1 (configuration not stated)	106	100	-37	-20
O=C(c1ccccc1)N1N=C2CCCCC2C1(O)C(F)(F)F (configuration not stated)	100	102	-2	-3
O/N=C(\Cc1nc2ccccc2s1)c1ccccc1	105	105	.	-10
CC(=O)O[C@@H]1[C@@H](O)CN[C@@H]1Cc1ccccc1	100&100	104&103	-26	-29
CC(C)(CN1CCc2ccccc2C1)NS(=O)(=O)c1ccccc1	104	97	.	4
CC(Cc1ccccc1)C(N)=O (configuration not stated)	99	98	-59	-4
COc1ccc2cc(/C=N/NC(N)=O)c(Cl)nc2c1	107	111	3	-4
CCOC(=O)/C=C1\SCC(=O)N1CCN(C)Cc1ccc(SC)cc1	100	93	-26	-5
CCOC(=O)c1nnn(CC(=O)NCc2ccc(F)cc2)c1C(=O)OCC	101	103	-7	3
CCOC(=O)N1CCN(C(=O)CN(Cc2cccc(C)c2)S(=O)(=O)c2ccc(Cl)cc2)CC1	100	96	-37	3
CNCc1ccco1	102	111	0	-27
O=C(O)CN(CC(=O)O)c1ccccc1	100	103	-31	-20
Cc1[nH]c(=O)[nH]c(=O)c1NC(=O)CC12CC3CC(CC(C3)C1)C2	101	103	-4	-3
Cc1csc(NC(=O)CSc2nnc(-c3ccoc3C)o2)n1	103	101	-24	-10
COc1cc(NC(=O)c2noc3c2CCC3)cc(OC)c1OC	102	103	-22	1
COCCn1c(SC(C#N)Cc2ccc(C)cc2)nnc1-c1cccc(C)c1 (configuration not stated)	107	117	5	18
CCCn1c(=NC(=O)C2CC2)sc2cc3c(cc21)OCO3	100	105	9	21
CC[C@@H]1[C@H]2CCCCN3[C@H]2[C@H](C[C@H]3[C@@H]2C[C@H](C)C(=O)O2)[C@@H]2[C@H]1OC(=O)[C@H]2C	98	119	0	.
CCC1(COCc2ccccc2)CCC(c2ccccc2)O1 (configuration not stated)	106	113	-21	.
COCCN1Cc2cccc(C(=O)N3CCC(N4CCCCC4)CC3)c2C1=O	103	105	-9	-2
CC1(C)C2CCC1(CS(=O)(=O)Nc1cccc(C(F)(F)F)c1)C(=O)C2 (configuration not stated)	100	103	.	-4
O=C(NCc1ccc2c(c1)OCO2)C1CCCN(S(=O)(=O)N2CCCCC2)C1 (configuration not stated)	102	103	9	-16
Cc1ccc(S(=O)(=O)Cn2nnnc2C(C(C)C)N2CCSCC2)cc1 (configuration not stated)	104	101	-40	-7
CCN1C(=O)/C(=C\c2ccco2)C(C(=O)OC)=C1C	98	99	-133	13
O=C(Nc1ccccc1)C1CCC1	104	103	.	-5
O=C1Nc2ccc(Cl)cc2/C1=C/c1ccccc1	103	108	.	-9
CCCSC(=S)NC1CCS(=O)(=O)C1 (configuration not stated)	102	101	-8	6

Complete entries as entered above. Order of values: PV pol inh	PV pol inh intensity	MenB inh	MbtI inh
Shown for `CCCn1c(=NC(=O)C2CC2)sc2cc3c(cc21)OCO3` → 100	105	9	21
Shown for `Cc1[nH]c(=O)[nH]c(=O)c1NC(=O)CC12CC3CC(CC(C3)C1)C2` → 101	103	-4	-3
Shown for `O=C(Nc1ccccc1)C1CCC1` → 104	103	.	-5

Continued:
SMILES	PV pol inh	PV pol inh intensity	MenB inh	MbtI inh
CCOC(=O)c1cc(-c2ccc(S(=O)(=O)N(CC)CC)s2)on1	99	101	18	-4
O=C(COC(=O)c1n[nH]c2ccccc12)Nc1ccccc1	103	104	.	-15
Cc1c(C)c2ccc(OCC(=O)O)c(C)c2oc1=O	106	100	-20	114
C/C(=C\c1ccccc1)C(=O)Nc1cc(C)on1	104	98	-21	2
N#CCC(=O)NCC1OCCc2ccccc21 (configuration not stated)	101	103	-5	-10
CCOc1ccccc1N(CC)C(=O)C1CCCN(c2ncnc3c2nc2n3CCCCC2)C1 (configuration not stated)	101	100	-23	-13
N#CCOC(=O)C1CSC2(c3ccc(Br)cc3)CCC(=O)N12 (configuration not stated)	107	114	-16	-4
N#CCCn1cc(CNCCCn2cnc3ccccc32)c(-c2ccccc2)n1	99	102	-13	-1
Cc1ncoc1C(=O)Nc1ccc(C(N)=O)cc1	101	108	-6	8
O=c1n(-c2ccccc2)c(=O)n2n1C1CCC2C1	109	112	-1	-8
CCC/C(O)=C(\C#N)c1nc2ccccc2[nH]1	.	.	-2	15
CC1(C)CNC(=S)NC1	94	88	-9	38
Cn1c(CNc2nc(-c3ccccc3)cs2)nnc1SCC(=O)c1ccccc1	104	102	-12	8
COc1ccc(OC(=O)c2cnc3n(c2=O)CCS3)cc1	104	102	12	1
COc1cc(OC)c(NC(=O)C2=C(C)C(=O)OC23CCN(C(C)C)CC3)cc1Cl	101	101	-25	10
CC(=O)Nc1ccc(Nc2nc3c(S(=O)(=O)c4ccc(C)c(C)c4)nnn3c3ccccc23)cc1	99	107	-4	3
COC(=O)NC1CSCC1OC(=O)CCCN1C(=O)c2ccccc2C1=O (configuration not stated)	108	110	-12	.
Fc1ccccc1-c1nc(-c2cccnc2)no1	101	104	-5	-82
N#C/C(=C\c1ccccc1)C(N)=O	98	105	-29	12
COc1cc(OC)c(OC)cc1CNC(=O)CCc1c(C)noc1C	104	110	-15	-3
Cc1[nH]n(-c2ccccc2)c(=O)c1Sc1nc2ccccc2[nH]1	112	111	3	-3
O=C1COc2ccc(C(=O)NC3CC3)cc2N1	101	99	-26	0
COc1ccc(C)cc1NCC(=O)Nc1ncc(Cl)c(C)c1Cl	102	106	.	0
CC1CCN(Cc2ccc(NC(=O)NCc3noc4ccccc34)cc2)CC1	102	104	-17	-2
CCN(CC)S(=O)(=O)c1cccc(C(=O)N2CC(O)CC2C(=O)O)c1 (configuration not stated)	99	101	-17	-13
Cc1cc(Nc2ccc(C(=O)O)cc2)nc(N)n1	102	101	-12	27
Cc1sc2ncn(CC(=O)N(C)Cc3ccccc3)c(=O)c2c1S(=O)(=O)N1CCN(c2ncccn2)CC1	97	110	-6	2
CC(=O)N1c2ccc(S(=O)(=O)NC(C(=O)NCc3ccccc3)C(C)C)cc2CC1C (configuration not stated)	103	104	-14	-3
CC(=O)Nc1cccc(C(=O)OCC(=O)NC2CCS(=O)(=O)C2)c1 (configuration not stated)	101	97	-13	-4
CCCC(C)C(=O)NCc1ccncc1 (configuration not stated)	104	106	-7	.

Reprinted from the listing, 24 compounds:
SMILES	PV pol inh	PV pol inh intensity	MenB inh	MbtI inh
C/C(=C\c1ccccc1)C(=O)Nc1cc(C)on1	104	98	-21	2
N#CCC(=O)NCC1OCCc2ccccc21 (configuration not stated)	101	103	-5	-10
CCOc1ccccc1N(CC)C(=O)C1CCCN(c2ncnc3c2nc2n3CCCCC2)C1 (configuration not stated)	101	100	-23	-13
N#CCOC(=O)C1CSC2(c3ccc(Br)cc3)CCC(=O)N12 (configuration not stated)	107	114	-16	-4
N#CCCn1cc(CNCCCn2cnc3ccccc32)c(-c2ccccc2)n1	99	102	-13	-1
Cc1ncoc1C(=O)Nc1ccc(C(N)=O)cc1	101	108	-6	8
O=c1n(-c2ccccc2)c(=O)n2n1C1CCC2C1	109	112	-1	-8
CCC/C(O)=C(\C#N)c1nc2ccccc2[nH]1	.	.	-2	15
CC1(C)CNC(=S)NC1	94	88	-9	38
Cn1c(CNc2nc(-c3ccccc3)cs2)nnc1SCC(=O)c1ccccc1	104	102	-12	8
COc1ccc(OC(=O)c2cnc3n(c2=O)CCS3)cc1	104	102	12	1
COc1cc(OC)c(NC(=O)C2=C(C)C(=O)OC23CCN(C(C)C)CC3)cc1Cl	101	101	-25	10
CC(=O)Nc1ccc(Nc2nc3c(S(=O)(=O)c4ccc(C)c(C)c4)nnn3c3ccccc23)cc1	99	107	-4	3
COC(=O)NC1CSCC1OC(=O)CCCN1C(=O)c2ccccc2C1=O (configuration not stated)	108	110	-12	.
Fc1ccccc1-c1nc(-c2cccnc2)no1	101	104	-5	-82
N#C/C(=C\c1ccccc1)C(N)=O	98	105	-29	12
COc1cc(OC)c(OC)cc1CNC(=O)CCc1c(C)noc1C	104	110	-15	-3
Cc1[nH]n(-c2ccccc2)c(=O)c1Sc1nc2ccccc2[nH]1	112	111	3	-3
O=C1COc2ccc(C(=O)NC3CC3)cc2N1	101	99	-26	0
COc1ccc(C)cc1NCC(=O)Nc1ncc(Cl)c(C)c1Cl	102	106	.	0
CC1CCN(Cc2ccc(NC(=O)NCc3noc4ccccc34)cc2)CC1	102	104	-17	-2
CCN(CC)S(=O)(=O)c1cccc(C(=O)N2CC(O)CC2C(=O)O)c1 (configuration not stated)	99	101	-17	-13
Cc1cc(Nc2ccc(C(=O)O)cc2)nc(N)n1	102	101	-12	27
Cc1sc2ncn(CC(=O)N(C)Cc3ccccc3)c(=O)c2c1S(=O)(=O)N1CCN(c2ncccn2)CC1	97	110	-6	2

Other records:
SMILES	PV pol inh	PV pol inh intensity	MenB inh	MbtI inh
O=C(NCc1ccccc1)c1cccc(NC2=NC3CS(=O)(=O)CC3S2)c1 (configuration not stated)	105	105	-18	-15
CC(C)Nc1ccc(C(F)(F)F)cn1	104	101	-10	i
CC(c1nnc(SCc2csc(-c3ccccc3)n2)n1-c1ccc(Cl)cc1)N(C)C (configuration not stated)	104	109	-24	13
C=CCC(O)(CC=C)C(N)C(C)C (configuration not stated)	103	104	-28	1
COCCn1c(SCC(=O)c2ccc(F)cc2)nc2ccccc21	103	104	-14	-31
O=C(Oc1ccc(-c2ccccc2)nn1)c1ccco1	101	100	6	10
c1ccc(N(c2ccccc2)c2nc(-n3nnc4ccccc43)nc(-n3nnc4ccccc43)n2)cc1	102	102	-3	-6
Clc1c2ccccc2c(/C=N/n2cnnc2)c2ccccc12	100	97	.	-8
CCOc1cc(-c2nc(-c3ccc(C)nc3OC)no2)cc(OCC)c1OCC	105	100	-3	.
CCOc1ccccc1C(=O)n1cc(Cl)cn1	107	99	-13	.
CC(C)(C)n1nc(-c2ccc3c(c2)OCCO3)c2ccccc2c1=O	103	109	-30	0
CCCCN1C=C(C(=O)OC)C(c2cc(C)ccc2C)C(C(=O)OC)=C1	103	103	-49	-48
CNS(=O)(=O)c1ccc2c(c1)OCCO2	103	95	-29	10
CN(C)S(=O)(=O)c1cccc(COC(=O)c2n[nH]c3ccccc23)c1	103	102	-17	-15
C[C@]12C=CC(=O)C=C1CCC1C2C(=O)C[C@@]2(C)C1CC[C@]2(O)C(=O)CO (some centres not stated)	100	100	-7	-28
Oc1oc(-c2ccco2)nc1C=Nc1ccccc1	102	97	i	8
C=CCNC(=O)c1ccncc1	102	96	-12	-2
C1=C(c2ccccc2)CCN(Cc2nnc(-c3ccco3)o2)C1	111	113	-27	18
Cc1ccc(Cn2c(=O)n(Cc3ccccc3)c(=O)c3c4c(sc32)CCC4)cc1	99	103	1	1
Nc1cccc(-c2nc3cc(Cl)ccc3o2)c1	100	100	-4	116
Cc1oc(C(C)(C)C)c(CN2CCOCC2)c1C(=O)O	101	95	4	.
CCNCC(=O)Nc1ccc(S(N)(=O)=O)cc1	109	101	6	17
Cc1[nH]nc2c1C(c1cccc3ccccc13)CC(=O)N2 (configuration not stated)	102	101	-13	0
CCOC(OCC)n1c(=S)n(C(OCC)OCC)c2ccccc21	83*	87*	-17	94*
CN(C)C(=O)c1ccccc1NS(=O)(=O)c1ccc(F)cc1	104	93	-24	-13
CCc1nn(CC(=O)N2CCC(C(N)=O)CC2)c(=O)c2cc3sccc3n12	102	99	7	0
COc1ccc(Cl)cc1-n1c(SCc2ccccc2F)nnc1-c1cc2occc2n1C	102	102	-53	38
O=C(CCc1nc2cccnc2n1Cc1cccs1)NCc1ccc2c(c1)OCO2	101	120	-23	7
